Compound activity from PubChem BioAssay.
eIF4H inh: inhibitors of RNA binding by human eIF4H; Q15056; eIF4H fluorescence polarization binding assay; inhibition, % at 35 µM; actives 0.94% (n = 290,000); AID 2012;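 active = 50% or more with normal probe brightness, or confirmed in later tests; inconclusive = above 50% with abnormal brightness, or retests that disagree; inactive = below 50% or failed in later tests; about a fifth of its hits are not listed in these tables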;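 note: calls also rest on retests at 20 µM and on dose response follow-up; 0% = protein and probe with vehicle and 100% = probe without protein; strong numbers were not always called active; many hits fall short of the cut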
UUG fidelity: yeast start codon fidelity modulation. S. cerevisiae UUG-firefly luciferase reporter, luminescence/redox ratio. activity score, % at 18.7 µM. actives 0.13% (n = 350,000). AID 602363;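 active = replicate mean at a twofold rise or more, about +100% in these data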;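 note: firefly luciferase made from a UUG start codon reports start codon fidelity; reporter light over untreated wells divided by growth signal over untreated wells; some hits fall short of that in this replicate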
MT1-MMP act inh: inhibitors of human MT1-MMP activation; P50281; actives 0.061% (n = 360,000); AID 651647; HT1080 RFP-PRO-GFP cells, GFP/RFP ratio fluorescence, overnight; percent of plate control window, DMSO zero; GFP/RFP ratio change, % at 20 µM;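 active = GFP/RFP ratio change of at least 30% with cell ATP level not reduced by more than half and red fluorescence within 50% of control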; note: strong numbers were not always called active
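Assay system: RFP-PRO-GFP reporter HT1080 cells; read-out basis: GFP/RFP fluorescence ratio; benchmarks: DMSO wells and RFP-L50D-GFP cells; doses: 20 µM single dose, 1% DMSO; schedule: overnight cell settling, then overnight compound exposure, 37 °C, 5% CO2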
CSC inhib: cancer stem cell inhibition. cancer stem cell-like cells viability, luminescence. inhibition, % at 7.5 µM. actives 1.1% (n = 300,000). AID 2717;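 active = mean at 75% or more and at least half the replicates too; inconclusive = mean and replicates disagree; tested in HMLE shEcad cells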;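 note: 0% = median of negative and 100% = median of positive control wells; the first replicate is given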
Rce1 inh: yeast Ras-converting enzyme inhibition; Q03530; AID 2563; yeast membranes, quenched prenylated peptide cleavage fluorescence; calls only; actives 0.27% (n = 290,000);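 active = fall in fluorescence gain of 50% or more versus controls, with final raw signal at or below 3038400; inconclusive = same 50% fall but final raw signal above 3038400; inactive = fall in fluorescence gain under 50%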;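 note: plate controls were neutral control wells for no effect and wells lacking membranes for full effect; tested at 10 µM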
Target sequence (Q03530 whole entry, looked up): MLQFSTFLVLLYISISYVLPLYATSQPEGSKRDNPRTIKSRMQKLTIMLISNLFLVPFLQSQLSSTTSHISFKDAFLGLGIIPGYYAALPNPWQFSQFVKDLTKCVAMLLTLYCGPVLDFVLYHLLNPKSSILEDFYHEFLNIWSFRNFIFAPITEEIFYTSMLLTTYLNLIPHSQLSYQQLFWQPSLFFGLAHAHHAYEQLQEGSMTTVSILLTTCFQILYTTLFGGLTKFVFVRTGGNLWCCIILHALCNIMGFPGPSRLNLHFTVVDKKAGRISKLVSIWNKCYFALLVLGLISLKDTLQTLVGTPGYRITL
HIV Env fusion: inhibitors of HIV Env-mediated cell fusion; HeLa-JRFL Env/CEM21 cell fusion, luciferase; inhibition, % at 12.3 µM; actives 1.1% (n = 360,000);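 active = mean replicate inhibition score of at least 50 and every replicate individually at or above 50; inconclusive = only one of the two criteria met; inactive = mean below 50 and not all replicates reaching 50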;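 note: 0% = plate neutral controls and 100% = maraviroc near 300 nM; one replicate is shown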
PABP FP inh: PABP-poly(A) binding inhibition; P11940; PABP-poly(A) RNA binding, fluorescence polarization; inhibition, % at 35 µM; actives 1% (n = 290,000); AID 2014;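 active = 50% or more with normal probe brightness, or confirmed in later tests; inconclusive = above 50% with abnormal brightness, or retests that disagree; inactive = below 50% or failed in later tests; about a fifth of its hits are not listed in these tables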;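 note: calls also rest on retests at 20 µM and on dose response follow-up; controls were probe without protein and protein plus probe with vehicle; some compounds called inactive have numbers as strong as hits; many hits fall short of the cut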
eIF4H inh retest: second read-out of eIF4H inh, no call of its own (marks repeat the call); inhibition, %; compound at 20 µM; confirmation average;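 mean of two retest wells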
PABP FP inh retest: recorded beside PABP FP inh, whose call it bears; inhibition, %; compound at 20 µM; confirmation repeats;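 mean of two retest wells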
MT1-MMP act inh RFP: further read-out of MT1-MMP act inh, marked with its call; RFP signal change, %; measured here: RFP expression control read;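 0 = vehicle wells; hits needed this value within 50% of zero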
An asterisk follows results filed as active; i = inactive; ? = inconclusive; . = not tested or not shown.

SMILES	eIF4H inh	UUG fidelity	MT1-MMP act inh	MT1-MMP act inh RFP	CSC inhib	Rce1 inh	HIV Env fusion	PABP FP inh	others
CC(=O)c1cc2c(cc1N)OCO2	-1	5	-3	4	-3	i	-11	0
COc1cc(/C=N/Nc2cc(C)nc(NS(=O)(=O)c3ccc(C)cc3)n2)ccc1O	-4	.	-7	-4	.	.	11	-2
O=C(CN1C(=O)NC2(CCCCC2)C1=O)Nc1ccccc1Cl	-2	.	2	2	-25	i	-27	7
Cc1cc(N2C3CCC2CC(O)(c2ccc(F)cc2)C3)nc(-c2ccccc2)n1 (stereo unspecified)	-3	-14	3	-4	26	i	.	-9
Cc1nc2c(C)cccc2c(SC(=N)N)c1CC=C(Cl)Cl	-6	.	-4	0	-3	i	6	2
COc1cc2[nH]c(C(=O)N3CCc4ccccc4C3)cc2c(OC)c1OC	.	-26	7	1	-23	i	-9	.
N=c1n(CCN2CCOCC2)c2ccccc2n1Cc1ccccc1Br	-3	-4	-5	-3	13	i	-53	-1
Cc1nc(Nc2nc(CSc3ccc(Cl)cc3)cc(=O)[nH]2)nc2ccccc12	-4	.	-5	-1	-35	i	-77	-13
O=C(Nc1ncc([N+](=O)[O-])s1)c1cccc([N+](=O)[O-])c1	-7	-11	-18	-37	54	i	-38	3
CC1Cc2ccccc2N1S(=O)(=O)c1ccc(Cl)nc1 (stereo unspecified)	2	-17	-1	-2	-20	i	-53	-3
COc1cccc(C2C3=C(N=c4s/c(=C\c5cccc(O)c5)c(=O)n42)c2ccccc2CC3)c1OC (stereo unspecified)	-1	-9	-9	-18	91*	i	.	-3
CNC(=O)c1c[nH]c2ccc(S(=O)(=O)Nc3cccc(SC)c3)cc2c1=O	44	-10	-12	-5	46	i	-4	14
O=C(OCC(=O)N1CCCCC1)c1cc(=O)[nH]c2ccccc12	.	-9	3	0	-10	.	.	.
COc1ccc(N(CC(=O)NCCSC2CCCCC2)S(=O)(=O)c2ccccc2)cc1OC	-9	-21	-1	-4	-4	i	-3	-2
CCC(N1CCOC1=O)S(=O)(=O)c1ccc(C)cc1 (stereo unspecified)	-8	-16	0	8	4	i	-183	19
COc1ccc(Oc2ncc(CN3CCN(c4ccccc4)CC3)s2)cc1	4	3	2	-11	.	i	37	-11
O=C(Nc1nc2c(c(=O)[nH]1)CCCC2)C1CC1	-13	-19	-3	0	-5	i	.	-1
COCCCNC(=O)CC1C[C@H](C(=O)N2CCCCC2)[C@@]2(CCc3ccccc3)c3[nH]c4ccc(OC)cc4c3CCN2C1=O (stereo partly specified)	.	3	-7	-4	.	.	-20	.
COC(=O)CC1C(=O)NCCN1C(=O)CSc1nnnn1-c1ccc(Cl)cc1 (stereo unspecified)	1	.	-1	0	-17	i	6	2
CCC(C)CCN1C(N(C)C)=NC[C@@H]1CC(C)C (stereo partly specified)	.	-1	4	7	-1	.	9	.
O=C(CNC(=O)c1ccccc1)N/N=C/C=C/c1ccccc1	-7	-8	0	3	-14	i	-4	-7
Cc1ccc(S(=O)(=O)N2CCC(C(=O)OCC(=O)NC3(C#N)CCCCC3)CC2)cc1C	.	-20	1	1	-13	i	.	.
O=C(CCc1ccccc1Cl)Nc1cccc(S(=O)(=O)N2CCCC2)c1	-4	-2	-2	-4	-7	i	.	14
CCn1c(C)nc2cc(C(=O)NNS(=O)(=O)c3c(F)cc(F)c(Cl)c3F)ccc21	0	8	8	3	-3	i	19	-10
CS(=O)(=O)c1cnc(-c2ccccc2)nc1Oc1ccc(F)cc1	0	.	1	3	-1	i	.	-2
COc1cccc(/C=N/NC(=O)c2ccccc2N(Cc2ccccc2)S(=O)(=O)c2ccccc2)c1OC	-9	.	6	-12	-6	i	.	-2
COc1ccc(/C=C/C(=O)OCC(=O)NCc2ccccc2Cl)cc1OC	.	.	2	7	17	.	-6	.
CC(C)(C)NC(=O)CN1CCC(O)(c2ccc3c(c2)OCO3)CC1	4	-18	-2	2	-4	i	.	-1
CCCCC(=O)NC1(C(F)(F)F)NC(=O)N(Cc2ccccc2)C1=O (stereo unspecified)	0	-4	3	1	5	i	19	1
COc1cccc2c(=O)n(CC(=O)NC3CCCC3)ccc12	-6	4	-1	2	4	i	-19	-2
CN1CCN(C(=O)c2ccc3c(c2)N(Cc2cccc(Cl)c2)C(=O)c2ccccc2S3=O)CC1 (stereo unspecified)	.	-8	-2	0	5	i	-22	.
CCN1CCN(c2ccc(Cl)cc2NC(=O)c2ccco2)CC1	.	-1	-1	-1	.	.	-41	.
O=C(NCC1CCCO1)c1cc(-c2ccco2)nc2ccccc12 (stereo unspecified)	82*	-14	-9	0	12	i	-1	24*	eIF4H inh retest=66*;PABP FP inh retest=63*
COC(=O)c1cc(C#N)c(N2CCN(C)CC2)nc1C	-2	.	-10	1	-7	i	-6	-6
COc1ccc(CCNC(=O)C(=O)NCC2OCCN2S(=O)(=O)c2ccc(OC)c(OC)c2)cc1 (stereo unspecified)	-2	-10	2	-1	-5	i	.	7
O=C(Cc1ccccc1)NN1C(=O)C2C(C1=O)C1C=CC2C12CC2 (stereo unspecified)	-8	-18	0	5	6	i	-7	0
COc1cc(C2C(C(=O)c3ccco3)=C(O)C(=O)N2CCc2ccccc2)ccc1O (stereo unspecified)	-3	-10	17	0	-13	i	-1	0
O=C(/C=C/c1ccccc1)NCC(=O)N/N=C/c1cccs1	-1	-17	4	5	1	i	5	20
CC(CNS(=O)(=O)c1ccc2c(c1)NC(=O)CCS2)c1ccccc1 (stereo unspecified)	-4	.	-5	0	3	i	0	-1
Fc1ccc(-[n+]2nc(Nc3ccccc3)sc2-c2cccc(Cl)c2Cl)cc1	-8	-6	-4	-3	-1	i	-25	17
CCOC(=O)c1sc(=NC(=O)c2cccc(C)c2)n(C)c1C	4	.	0	0	2	i	-16	-4
CC(=O)c1c(COC(=O)c2ccc(C)cc2)nc2ccccc2[n+]1[O-]	3	-6	1	-6	7	i	-1	6
Cc1ccccc1C(=O)NC1CCN(C(=O)N(c2ccccc2)c2ccccc2)CC1	-13	0	-14	-8	-8	i	-30	-3
COCCSc1ccccc1C(=O)N1CCN(Cc2ccc3c(c2)OCO3)CC1	1	-16	-2	-4	-6	i	-24	2
CC(C)NC1(C(N)=O)CCNCC1	.	-3	1	3	.	.	-11	.
O=C(Cc1ccc(F)cc1)Nc1nccs1	3	-22	2	6	0	i	-9	2
Cc1cc(=O)oc2c(CN3CCCC3)c(O)c(Cl)cc12	61	-11	-1	2	-13	i	3	46	eIF4H inh retest=28;PABP FP inh retest=38
CCCCNC(=O)c1ccc(CNS(=O)(=O)c2ccc(Br)cc2)cc1	-6	-16	2	0	-2	i	15	-8
CCN(CC)S(=O)(=O)c1ccc(N=NC2=C(O)CC(C)(C)CC2=O)cc1	12	0	2	4	5	i	5	3
Cc1cccc(NC(=O)c2c([N+](=O)[O-])cnn2C)c1	1	-24	-2	0	-12	i	-1	6
Nc1cc(N)nc(SCC(=O)NC2CCCCCCC2)n1	.	-22	-2	-1	.	.	-20	.
CCN1c2ccccc2-c2nc3ccccc3n2C1c1ccccn1 (stereo unspecified)	-3	1	3	2	-7	?	.	11
COc1ccc(C(=O)NNC(=O)C(=O)Nc2cccc3ccccc23)cc1	16	-19	6	2	-2	i	1	0
CCN1CCN(S(=O)(=O)c2ccc(Cl)c(C(=O)NCc3nc4ccccc4[nH]3)c2)CC1	.	-14	4	5	.	.	-2	.
O=C(NS(=O)(=O)Nc1ccc(Cl)cc1)c1c[nH]c2ccccc12	-7	-10	5	5	26	i	-9	8
CCCCOC(=O)CNc1nnc(SCC(=O)OCC)[nH]c1=O	-3	-3	8	3	0	i	.	4
C1CCN(c2c3c(nc4nnnn24)CCCC3)CC1	0	.	-1	2	-24	i	.	-6
Cc1ccccc1N=C1NN=C(c2ccccc2F)CS1	-14	-45	-3	-4	9	i	i	60	eIF4H inh retest=-1;PABP FP inh retest=1
O=C(c1cc2c(ccc3ccccc32)oc1=O)N1CCN(CCO)CC1	6	-11	3	4	2	i	-33	3
CC(Sc1nc2ccccc2c(=O)n1CC1CCCO1)C(=O)NC(C)c1ccccc1 (stereo unspecified)	.	7	-1	1	-6	i	.	.
Carrying on:
SMILES	eIF4H inh	UUG fidelity	MT1-MMP act inh	MT1-MMP act inh RFP	CSC inhib	Rce1 inh	HIV Env fusion	PABP FP inh	others
Cc1[nH]nc2c1C1(CCC3(CC1)OCCO3)C(C#N)=C(N)O2	-1	.	1	5	-6	i	.	4
Cc1ccc(/C=N/NC(=O)c2cc(-c3ccc(C)o3)[nH]n2)cc1	-4	-8	4	3	0	i	24	4
COc1ccccc1OCC(=O)OCC(=O)Nc1ncc(Cl)cc1Cl	9	-15	9	10	4	i	.	8
Cc1ccc(S(=O)(=O)NNC(=O)c2cc([N+](=O)[O-])c(C)c([N+](=O)[O-])c2)cc1	.	0	-3	-6	-5	i	1	.
CCn1c(CN2CCCCCC2=O)nnc1SCc1cnc(-c2ccccc2)s1	2	-18	-1	-4	39	i	?	-5
c1coc(CSc2ncnc3c2oc2ccccc23)c1	-5	-12	5	4	-6	i	-21	4
COc1ccc(OCC(=O)N/N=C/c2ccc(OC)c(OC)c2C(=O)O)cc1	-1	.	3	3	-16	i	-6	-6
CCOc1ccc(N2C(=O)CC(Sc3nnnn3-c3ccccc3)C2=O)cc1 (stereo unspecified)	4	.	0	5	.	i	-2	-5
CCCCCn1c(=O)[nH]c2c(c1=O)CCC2	1	-8	3	4	-10	i	.	0
CCO/N=C(/C)c1c(O)cc(C(C)(C)C)n(-c2ccccc2)c1=O	7	-8	0	1	1	i	-79	5
Cc1ccc(C(=O)NCC(=O)Nc2ccncc2)cc1C	-6	-16	5	-5	-7	i	.	4
CC(C)Nc1nc(Cl)nc(Nc2ccccc2)n1	-4	-12	-4	-1	-12	i	-123	-3
CCOCCn1c(-c2ccc(OC)cc2)nc2ccccc21	-4	-16	-1	1	-11	i	-20	1
O=C(COc1ccccc1Cl)NC(=S)Nc1cccc(NC(=O)c2ccccc2Cl)c1	-4	-4	25	-3	8	i	.	-8
C[C@H]1CC[C@]2(O[C@H](CCO)C[C@H](O)[C@H]2O)O1	.	-15	-1	6	-2	i	1	.
O=C(CSc1cccc2cccnc12)NCc1ccco1	4	-19	-2	-2	-8	i	.	3
COc1cc(C(=O)OCC(=O)Nc2ccc(N3CCOCC3)cc2)ccc1OCC(C)C	.	.	0	1	-6	i	.	.
O=C(Nc1cccc(NC(=O)C2CCCO2)c1)c1ccco1 (stereo unspecified)	5	.	2	5	22	i	9	-5
COc1cc(NC(=O)C2Cc3ccccc3CN2S(C)(=O)=O)cc(OC)c1 (stereo unspecified)	-6	-17	-2	-2	-3	i	9	-4
CCN(CC(=O)NCc1cccs1)S(=O)(=O)c1c(F)cccc1F	.	-5	-1	-1	-17	.	.	.
COC(=O)c1cc(COc2ccc3c(c2)oc(=O)c2ccccc23)c(C)o1	9	-41	3	0	-9	i	.	5
O=C(NC1=NCCS1)c1cccc(Br)c1	.	4	4	-2	-4	i	-74	.
O=C(NCc1ccco1)C(=O)NCC1OCCN1S(=O)(=O)c1cc(F)ccc1F (stereo unspecified)	21	.	0	0	-5	i	-32	4
